ClpP mod = qHTS Assay for Activators of ClpP. ATP-dependent Clp protease proteolytic subunit (Bacillus subtilis (strain 168)), P80244. Potency, µM (titrated, usually from 57.5 µM), inactives show at the highest dose activity change, negative = active. 340,000 tested, 1.9% active. purified B. subtilis ClpP, FRET peptide cleavage, 20 min. AID 651965, 2013; active = well fitted falling curve with a large enough effect; inconclusive = small, poorly fitted or top-dose-only effect; inactive = no such curve, though single readings can be large or run the other way; also: potency is read from the fitted curve at half-maximal effect; the source files actives as falling curves though it sought activators and does not explain the sign; nearly all actives have a fitted effect of over 65% in size; many hits overshoot -100%
Target sequence (P80244 whole entry, looked up): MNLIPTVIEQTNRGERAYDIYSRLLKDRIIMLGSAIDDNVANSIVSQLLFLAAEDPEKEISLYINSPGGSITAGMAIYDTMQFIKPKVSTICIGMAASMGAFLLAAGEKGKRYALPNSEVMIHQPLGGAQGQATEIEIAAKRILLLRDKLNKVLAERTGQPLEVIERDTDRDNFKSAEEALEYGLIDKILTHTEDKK
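ClpP 10 microg/mL final, pH 8 Tris/KCl buffer with BSA, glycerol, Tween-20; compound pinned in; FRET-FV substrate; RT 20 min; Ex320/Em430; ΔFRET vs ADEP 5.8 microM, DMSO, no enzyme.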
gsp agonist = qHTS for Agonist of gsp, the Etiologic Mutation Responsible for Fibrous Dysplasia/McCune-Albright Syndrome: qHTS; Potency, µM (doses to about 76.9 µM), for inactives: at the top dose activation (cAMP increase), usual class: activators; gsp mutant cells, cAMP HTRF, 30 min; control for the full effect not named in the record; 340,000 tested, 0.13% active; active = well fitted activation curve with a large enough effect; inconclusive = small, poorly fitted or top-dose-only effect, or another doubt; inactive = no such curve, though single readings can be large or run the other way; cell line not stated here;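 also: phosphodiesterase inhibitor Ro 20-1724 added with compounds to block cAMP breakdown; potency is read from the fitted curve at half-maximal effect; nearly all actives have a fitted effect of over 60% in size; about a fifth of the inactives were tested at one dose only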
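Cells in DMEM/10% FBS with G418 were pretreated with compounds in DMSO plus […] (300 uM stock) for 30 min at 37C. cAMP was measured by HTRF (cAMP-d2 plus anti-cAMP antibody-K) after 30 min at room temperature.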
Sfp inh = qHTS Assay for Inhibitors of Bacillus subtilis Sfp phosphopantetheinyl transferase (PPTase). 4'-phosphopantetheinyl transferase ffp (Bacillus subtilis), Q9F4F7. Biochemical Sfp PPTase activity, qHTS. Potency, µM, for inactives: max response, negative = inhibition, usual class: inhibitors. 310,000 tested, 3.5% active; active = well fitted inhibition curve with a large enough effect; inconclusive = small, poorly fitted or top-dose-only effect, or another doubt; inactive = no such curve, though single readings can be large or run the other way;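 also: the enzyme is Sfp with the accession as filed and its product quenches rhodamine fluorescence; potency is read from the fitted curve at half-maximal effect; 0% = enzyme reaction without inhibitor and -100% = no enzyme wells; top concentration of the series not given in the record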
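Reaction rates are the 30-min fluorescence difference (ex 525, em 598 nm) in wells containing 15 nM Sfp, 5 uM rhodamine-CoA and 12.5 uM BHQ-2-YbbR at pH 7.6 with 10 mM MgCl2.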
D2 PAM = Beta-Arrestin HTS for Positive Allosteric Modulators of the Human D2 Dopamine Receptor: Potentiators; D(2) dopamine receptor (Homo sapiens), P14416; DiscoveRx D2 beta-arrestin cells, luminescence, 90 min; 100% = 57 uM dopamine signal; potentiation, % (test concentration not listed); 360,000 tested, 0.23% active; AID 624464, 2012; active = potentiation of 50% or more; inconclusive = 30% to 50%; inactive = 30% or less;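 also: compound concentration not given in the record; tested on top of an EC20 dose of dopamine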
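D2 cells co-treated with compound plus 50 nM dopamine (EC20) for 90 min at 37 deg C to detect potentiation. Beta-arrestin recruitment was read as enzyme-fragment luminescence after 1 h at ambient temperature. Full response was set by 57 uM dopamine.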
gsp antag = qHTS for Antagonists of gsp, the Etiologic Mutation Responsible for Fibrous Dysplasia/McCune-Albright Syndrome: qHTS; Potency, µM (highest dose often 76.9 µM), without a hit: at the top dose activity change, negative = inhibition, usual class: inhibitors; gsp-mutant cells, cAMP HTRF, 30 min; control for the full effect not named in the record; 340,000 tested, 0.4% active; AID 624288, 2012; active = falling curve of any shape with a large fitted effect; inconclusive = falling curve, mostly with a smaller effect; inactive = flat or rising curve; cell line not stated here;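 also: intracellular cAMP measured with PDE inhibitor Ro 20-1724 present during compound exposure; potency is read from the fitted curve at half-maximal effect; % is scaled to controls: 0 for no effect and ±100 for the full control effect; nearly all actives have a fitted effect of over 65% in size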
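Cells in G418 medium, seeded 16-24 h, 37C; buffer exchange to DPBS + 1 mM CaCl2, 0.5 mM MgCl2, 0.05% BSA; cpds in DMSO + […] (300 uM stock), 30 min 37C; HTRF cAMP detection.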
TRPV1 potentiator = HTS Assay for Compounds that Act as Potentiators of the Vanilloid Receptor 1. TRPV1-expressing cells, Fluo-8 calcium influx, capsaicin EC20 potentiation; host cell line not named in the record; control for the full effect not named in the record. potentiation, % at 8.33 µM. Transient receptor potential cation channel subfamily V member 1 (Homo sapiens), Q8NER1. 320,000 tested, 0.02% active; active means potentiation above 80%; inconclusive means 30% to 80%; inactive means below 30%; also: 0% is about no effect
Target sequence (Q8NER1 whole entry, looked up): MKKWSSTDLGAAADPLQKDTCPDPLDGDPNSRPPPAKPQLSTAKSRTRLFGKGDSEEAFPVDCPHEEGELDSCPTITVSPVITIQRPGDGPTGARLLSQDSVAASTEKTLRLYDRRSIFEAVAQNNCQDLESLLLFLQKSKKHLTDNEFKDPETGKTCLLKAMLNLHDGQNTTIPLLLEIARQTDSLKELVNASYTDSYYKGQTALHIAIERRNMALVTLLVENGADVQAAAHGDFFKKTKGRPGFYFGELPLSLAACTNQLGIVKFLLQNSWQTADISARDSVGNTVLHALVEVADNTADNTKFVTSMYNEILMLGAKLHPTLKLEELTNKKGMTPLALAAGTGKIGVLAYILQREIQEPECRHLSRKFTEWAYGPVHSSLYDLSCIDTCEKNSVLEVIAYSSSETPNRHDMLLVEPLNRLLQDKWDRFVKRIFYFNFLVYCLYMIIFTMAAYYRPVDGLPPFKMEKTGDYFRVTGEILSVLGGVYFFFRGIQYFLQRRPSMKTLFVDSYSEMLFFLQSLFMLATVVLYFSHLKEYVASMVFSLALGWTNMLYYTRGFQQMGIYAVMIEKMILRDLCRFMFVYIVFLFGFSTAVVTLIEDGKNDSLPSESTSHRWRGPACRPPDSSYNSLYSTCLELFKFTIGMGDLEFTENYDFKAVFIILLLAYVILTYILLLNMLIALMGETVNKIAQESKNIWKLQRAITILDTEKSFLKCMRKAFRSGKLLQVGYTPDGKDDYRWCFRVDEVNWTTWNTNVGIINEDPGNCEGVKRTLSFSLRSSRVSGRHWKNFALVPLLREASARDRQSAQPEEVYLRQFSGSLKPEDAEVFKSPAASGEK
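TRPV1-expressing cells were cultured overnight at 35.5C and loaded with Fluo-8 calcium dye for 40 to 90 min at room temperature. After a 10 s baseline, compound was added and calcium influx was read kinetically for 3 min (ex 480/em 520 nm).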
Menin-MLL FL inh = qHTS Assay for Inhibitors Targeting the Menin-MLL Interaction in MLL Related Leukemias: Competition With Fluorescein Labeled MLL-derived Peptide | Fluorescence polarization, fluorescein-MLL peptide displacement from menin | FP activity change, % at 61.4 µM | 290,000 tested, under 10 active | AID 1766, 2009; inconclusive = falling polarisation curve, or a change in total fluorescence; inactive = total fluorescence flat and polarisation flat or rising; no compound was filed as active; the % refers to the polarisation; negative = inhibition;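 also: % of control where 0% means no effect; inhibitors lower the polarisation; unlabelled MLL peptide was the positive control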
Active calls of the source: *; ? = inconclusive; . = not tested or not shown; & = joins results of further samples; [ ] = dose if it differs, or a comment. Random draw from the library; about 5.1% have a hit in one of these screens.

Structure	ClpP mod	gsp agonist	Sfp inh	D2 PAM	gsp antag	TRPV1 potentiator	Menin-MLL FL inh
COc1cc(CN2CCN(c3ccccc3C)CC2)cc([N+](=O)[O-])c1O	-0.4%	-12%	-16%	-30	-2%	10	5.3
COc1cccc(CN(C(=O)c2cnccn2)C(C(=O)NC2CCCCC2)c2cc(OC)c(OC)c(OC)c2)c1 (stereo unspecified)	.	-5%[15.4 µM]	17%	-3	13%	0	-0.8
O=C(COn1nnc2ccc(Cl)cc21)Nc1ccc(F)cc1	-0.2%	21%	-6%	-7	-19%	-1	0.2
O=C(NNC(=S)Nc1ccc(F)cc1)C1CC1c1ccc(Cl)cc1 (stereo unspecified)	-2.1%	-1%	8%	-30	5%	16	2.4
Cc1ccc([C@H]2C[C@H](O)[C@@H](n3cc(COC(=O)c4ccccc4)nn3)CN2Cc2cccs2)cc1	-12%	?	.	2	.	.	.
c1ccc(-c2nnc(-c3ccccc3)c(-c3c[nH]c4ccccc34)n2)cc1	-0.3%	5%	-12%	-23	11%	6	0.1
COc1ccc2[nH]c(=O)c(CN(CCO)C(=O)NCc3ccccc3)cc2c1	25µM*	-7%	13%	-13	4%	1	0.5
CSc1ncc(Cl)c(C(=O)Nc2nnc(SC)s2)n1	-0.7%	?	4%	3	6%	11	-1.4
CC1CC(C#N)N(N(C)C)C1=C(C#N)C#N (stereo unspecified)	0.4%	-2%[15.4 µM]	7%	3	11%	1	0.2
Cc1[nH]c(=O)nc(SCc2ccc(Cl)c(Cl)c2)c1C#N	.	8%[15.4 µM]	-8%	-4	-23%	10	19
NC(=O)Cn1cc(/C=N\NS(=O)(=O)c2ccccc2)c2ccccc21	-0.2%	0%	-13%	-1	9%	11	0.8
COc1ccccc1N1CCN(C(=O)C2CC=CCC2C(=O)O)CC1 (stereo unspecified)	0.8%	-7%	13%	-35	0%	-18	-2.3
O=C(NCCc1ccccc1)c1ccc(Cl)nc1	-0.1%	15%	18%	-28	2%	-19	6.1
Cc1occc1C(=O)NNC(=O)C1CC1	-2.8%	1%	5%	4	-7%	21	-2.2
Cc1ccc(OC(C)C(=O)Nc2ncc(Cl)cc2Cl)c([N+](=O)[O-])n1 (stereo unspecified)	.	27%	.	-4	-4%	.	.

Next compounds:
Structure	ClpP mod	gsp agonist	Sfp inh	D2 PAM	gsp antag	TRPV1 potentiator	Menin-MLL FL inh
O=S(=O)(NN=C1CCCCCCC1)c1ccccc1	0.6%	-58%[inhibitor]	.	-8	.	.	.
O=C1CC(c2c(F)cccc2Cl)C2=C(COC2=O)N1 (stereo unspecified)	-7.9%	?	15%	-5	-1%	14	3.2
COc1cccc(CNn2cnnc2)c1OCc1ccc(F)cc1	0.2%	7%	5%	0	11%	-8	6.5
COc1ccc(-c2nc(SCC(=O)Nc3c(F)cccc3F)n[nH]2)cc1	-1.2%	27%	.	7	-13%	0	.
CC(C)C(=O)Nc1cc(=O)[nH]c2ncnn12	-0.2%	7%	10%	3	4%	1	3.3
N=C1/C(=C/c2coc3ccccc3c2=O)C(=O)N=C2SC(c3ccco3)=NN12	.	39%	40µM*	4	?	4	?
CCCCc1cc(=O)oc2cc(C)cc(OCc3nn[nH]n3)c12	33%	-30%[inhibitor]	6%	-3	-9%	14	3.9
O=C(O)c1cc(S(=O)(=O)NC23CC4CC(CC(C4)C2)C3)ccc1Cl	-0.1%	-4%	20%	-5	11%	0	14
c1cncc(COC2CCCN(Cc3nc(-c4cccs4)no3)C2)c1 (stereo unspecified)	-0.7%	-4%	4%	-8	7%	-3	0.0
CCN(CC)CCNC(=O)c1ccc(NC(C)=O)cc1	1.4%&-2.8%	.	6%&6%&19%	2&-10	-3%&4%	-7&-4	0.4&4.1&-1.2&0.3
COC(=O)c1sc(NC(=O)COc2cccc(C)c2)nc1C	-1.9%	-8%	19%	-16	-8%	2	5.5
CCOc1ccc(OCC)c(NC(=O)CN2CCN(CC(=O)NC(C)C)CC2)c1	-3.9%	?	?	-18	-14%	9	0.1
Cc1noc(C)c1NC(=O)N(C)C[C@H]1Oc2c(NC(=O)Cc3ccccc3)cccc2C(=O)N([C@H](C)CO)C[C@@H]1C	-2.8%	.	.	-4	9%	.	.
Cc1ccc(S(=O)(=O)N(C)C)cc1NC(=O)CSc1nc2ncc(Cl)cc2[nH]1	-4.6%	1%	.	-35	-21%	15	.
CCCNC(C)(C)COC(=O)c1ccccc1	0.4%	.	16%	-7	7%	-9	-4.4[24.8 µM]

Next part:
Structure	ClpP mod	gsp agonist	Sfp inh	D2 PAM	gsp antag	TRPV1 potentiator	Menin-MLL FL inh
Cc1ccc(C(=O)NC(=O)CSc2ncccc2C(=O)O)cc1	.	1%[15.4 µM]	-3%	-8	8%	-9	0.7
C#CCOCCOCCOCCNc1nc(N2CCN(C(=O)CCCCCCCCCCNC(=O)[C@H]([C@@H](C)CC)n3cc(CCCCCN)nn3)CC2)nc(N2CCN(C(=O)CCCCCCCCCCNC(=O)[C@@H]([C@H](C)O)n3cc(C)nn3)CC2)n1	-2.0%	.	.	-35	9%	-67	.
COc1cc(C)ccc1OC(C)C(=O)Nc1ccc(N2CCCCC2)cc1 (stereo unspecified)	1.6%	3%[15.4 µM]	.	-11	-10%	.	.
CCN(CC(=O)Nc1ccccc1C(F)(F)F)C(=O)c1ccc(N2CCCC2=O)cc1	2.6%	16%	.	2	-1%	-7	.
C/C(=C/CCC(C)(O)C1CC[C@@]2(C)[C@@H]3CC=C4[C@@H](CC[C@H](O[C@H]5O[C@@H](CO)[C@H](O)[C@@H](O)[C@@H]5O)C4(C)C)[C@]3(C)C(=O)C[C@]12C)CO[C@@H]1O[C@H](CO)[C@@H](O)[C@H](O)[C@H]1O (stereo partly specified)	0.3%	-8%	.	0	-1%	.	.
CCOC(=O)C1CCCN(C(=O)Cn2nc(C)n3nc(-c4ccccc4)cc3c2=O)C1 (stereo unspecified)	-2.5%	-16%	15%	-4	-18%	2	.
COc1ccc2nc(Nc3nc4cc5c(cc4s3)OCO5)sc2c1	13µM*	25%	-4%	7	2%	3	4.0
CC1(C)Cc2ccccc2-c2nc(-c3ccccc3)oc(=O)c21	-1.4%	-1%	-10%	-2	-1%	-3	-1.0
COc1ccc(-c2nc(CN3CCC(C(=O)NCC4CCCO4)CC3)c(C)o2)cc1OC (stereo unspecified)	-21%	15%	15%	-4	1%	21	4.9
O=C(O)CCCC(=O)Nc1ccc(C(=O)NCc2cccnc2)cc1	2.6%	4%	26%	-7	5%	-14	3.8
O=C(O)c1cc(=O)[nH]c2ccccc12	4.0%	.	.	-3	10%	.	.
COc1cc(/C=N/NC(=O)c2cccc([N+](=O)[O-])c2)ccc1OCc1ccccc1	1.5%	21%	21%	-5	14%	7	-2.2
O=C(COC(=O)CCc1ccc(S(=O)(=O)N2CCOCC2)cc1)NC(=O)NC1CCCCC1	.	-5%[15.4 µM]	12%	-4	.	3	-3.6
COc1ccc(CN2CCNC(=O)C2CC(=O)NC2Cc3ccccc3C2)c(OC)c1 (stereo unspecified)	-2.6%	-26%	4%	-6	1%	4	-2.4
Clc1cccc(Sc2ccc(-c3ccccn3)s2)c1	4.2%	?	2%	-11	-7%	2	3.0

Going on with the list:
Structure	ClpP mod	gsp agonist	Sfp inh	D2 PAM	gsp antag	TRPV1 potentiator	Menin-MLL FL inh
C[C@@H](OC(=O)N(C)Cc1ccccc1)[C@H]1O[C@]2(C)CCCC[C@H]1O2	1.3%	6%	.	-9	-7%	-5	.
O=C(NCCOc1ccc(F)cc1)C1CCN(S(=O)(=O)c2ccccc2)CC1	-0.7%	12%	8%	-4	-13%	-4	-0.6
FC(F)Oc1ccccc1NC(=S)Nc1cccnc1	-5.1%	-40%[inhibitor]	?	-10	14%	-2	4.1
Cn1c(=O)n(CC(=O)NC2CCCCC2)c(=O)c2ccccc21	-28%	?	19%	-1	5%	-4	-0.7
Cc1ccc(C(C)NC(=O)c2c(-c3ccccc3)noc2C)cc1C (stereo unspecified)	-1.3%	6%	6%	0	-8%	-2	1.5
O=C(CNCc1ccco1)Nc1cccc(S(=O)(=O)N2CCCCC2)c1	-1.0%	9%	-26%	-12	-2%	3	3.5
Cn1c(N2CCN(C(=O)NC34CC5CC(CC(C5)C3)C4)CC2)nc2ccccc21	3.4%	?	23%	5	7%	10	3.6
COCCOc1ccc(C(F)(F)F)cc1NC(=O)COC(=O)C1=COCCO1	-2.3%	16%[15.4 µM]	.	-30	2%	-12	.
Cc1ccc2c(c1)NC(=O)C(CC(=O)NCCCN1CCCCC1C)O2 (stereo unspecified)	-2.1%	?	-17%	-6	-8%	-3	0.8
CC(C)c1ccc(C(=O)NCc2ccc(Cl)cc2)cc1	-1.3%	-37%[inhibitor]	18%	-17	1%	-12	4.6
CNC(=S)N(CCc1c(C)[nH]c2ccc(Cl)cc12)Cc1cccnc1	-0.4%	-1%[15.4 µM]	-12%	-7	-11%	5	?
COC(=O)c1ccc(NC(=O)c2cccc(C)c2[N+](=O)[O-])cc1	-2.0%	12%	9%	-10	?	-13	2.7
COc1cccc(C(=O)NC2C(=O)N3C(C(=O)O)=C(COC(C)=O)CSC23)c1 (stereo unspecified)	0.5%	-7%	.	-5	0%	-1	.
Cc1cccnc1NC(=O)Nc1cccc(Cl)c1	-3.2%	-25%[15.4 µM]	12%	-10	-2%	0	1.8
CC(C)c1ccc(C2(C)NC(=O)N(CC(=O)N3CCN(C(=O)c4cccs4)CC3)C2=O)cc1 (stereo unspecified)	-1.1%	24%	.	1	-5%	-3	.
CC(C)C[C@H]1CN=C(Nc2ccccc2)N1CCC1CCCC1	1.6%	10%	1%	-24	6%	-14	0.1

Compound activity (PubChem BioAssay)
